# YopH inh: inhibitors of Yersinia enterocolitica YopH tyrosine phosphatase; fluorescence Ex485/Em525; inhibition, %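 (about 10 µM by stock and volumes)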; 0.16% of 140,000 active; AID 898;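 active means inhibition of 50% or more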;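 further: controls were vehicle for no effect and minimum signal wells for full effect; inactives centre near -20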
# Mtb betalactam: beta-lactam sensitization of Mtb H37Rv; M. tuberculosis H37Rv growth with meropenem, percent inhibition; hits of this screen are not shown here; inhibition, % at 25 µM; 0.27% of 330,000 active;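 active means about 74% or more and at least 40 points above the plate without the antibiotic, then above 30% in a dose series; inconclusive means first-round hits that could not be retested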;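 further: growth measured after seven days incubation then overnight dye step; 0% = bacteria only wells and 100% = bacteria with antibiotic; twin plates without the antibiotic show which effects depend on it; some results filed as inactive read as strong as hits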
# Arbovirus inh: arbovirus infection inhibition. arbovirus infection cell-based antiviral screen. inhibition, % at 10 µM. 0.37% of 200,000 active;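 active means inhibition from about 30%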;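 further: bluetongue infection of BSR cells; cell survival read as ATP light after 72 h; 0% = infected wells without compound and 100% = uninfected wells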
# RecA splice inh: Mtb RecA intein splicing inhibition; inhibition, %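 (about 9 µM by stock and volumes)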; 0.75% of 290,000 active; AID 2221; P9WHJ3; cell-free RecA intein splicing, fluorescence; in the data active means inhibition above about 30%; inconclusive means no clear call, values can overlap the other calls;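 further: 0% = vehicle wells and 100% = reference inhibitor control wells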
# Target sequence (P9WHJ3 whole entry, looked up, canonical isoform): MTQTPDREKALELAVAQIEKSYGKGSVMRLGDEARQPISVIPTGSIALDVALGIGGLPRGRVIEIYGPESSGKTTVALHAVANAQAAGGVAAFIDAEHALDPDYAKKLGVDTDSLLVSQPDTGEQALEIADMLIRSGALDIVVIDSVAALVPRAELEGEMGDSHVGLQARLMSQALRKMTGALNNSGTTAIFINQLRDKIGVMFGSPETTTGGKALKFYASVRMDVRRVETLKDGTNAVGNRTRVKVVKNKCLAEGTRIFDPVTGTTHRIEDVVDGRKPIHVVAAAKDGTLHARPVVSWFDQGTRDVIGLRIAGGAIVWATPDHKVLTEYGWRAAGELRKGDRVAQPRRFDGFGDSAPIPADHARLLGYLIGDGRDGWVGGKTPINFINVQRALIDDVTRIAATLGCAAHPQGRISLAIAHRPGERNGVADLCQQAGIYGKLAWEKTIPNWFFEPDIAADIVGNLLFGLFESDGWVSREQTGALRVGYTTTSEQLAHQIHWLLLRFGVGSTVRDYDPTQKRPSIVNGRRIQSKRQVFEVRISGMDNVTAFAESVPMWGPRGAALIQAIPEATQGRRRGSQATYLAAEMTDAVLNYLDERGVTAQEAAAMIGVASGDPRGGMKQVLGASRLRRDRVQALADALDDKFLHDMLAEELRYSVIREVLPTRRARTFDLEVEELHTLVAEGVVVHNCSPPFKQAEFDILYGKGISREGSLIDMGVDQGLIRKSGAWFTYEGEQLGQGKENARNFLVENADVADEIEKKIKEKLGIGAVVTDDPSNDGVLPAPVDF
# Mtb growth: M. tuberculosis H37Rv growth inhibitors, H37Rv strain (AID 1626); M. tuberculosis H37Rv growth inhibition; higher % means a stronger effect; inhibition, % at 10 µM, or IC50 in µM where a hit was titrated; 0.95% of 220,000 active;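 active means confirmed in a dose series; inconclusive means inhibition above 80% but not taken into the dose series; inactive means below 80% or under 30% at every dose of the series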;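 further: bacteria incubated seven days before Alamar blue readout; 0% = bacteria only wells and 100% = bacteria with antibiotic wells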
# Arbovirus inh repeat: further read-out of Arbovirus inh, marked with its call; inhibition, %; measured here: 10K subset replicate screen; many hits read low in the repeat;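 first of two repeat runs on a subset; 0% = infected and 100% = uninfected wells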
# * marks the source's active call; other numbers are inactive results; ? = inconclusive; · = not tested or not shown. Not all compounds are listed (hit frequency here may not be typical).
SMILES,YopH inh,Mtb betalactam,Arbovirus inh,RecA splice inh,Mtb growth,others
CCOC(=O)C1=C(C)NC2=C(C(=O)CC(C)(C)C2)C1c1coc2ccccc2c1=O (stereo not given),-12,8,-3,0.1,-7%,
Cc1ccc(-c2csc(N(Cc3ccco3)C(=O)c3cccs3)n2)cc1,8,14,8,·,-3%,
O=C(NC1CC1)C1CCN(C2CCN(C(=O)c3ccc4cccc(F)c4n3)CC2)CC1,·,-6,6,-11,0%,
C=CCN(CC(=O)NC1CCS(=O)(=O)C1)S(=O)(=O)c1ccccc1C(F)(F)F (stereo not given),·,1,8,-0.6,-1%,
COc1ccc(C(=O)NCCCNC(=O)c2ccccn2)cc1,·,-11,·,-0.9,·,
Cc1c(Cl)cccc1NC(=S)NN1CCOCC1,-15,5,-2,0.6,-6%,
CN1CCC(NCCC(c2ccc(F)cc2)c2ccc(Cl)cc2)CC1 (stereo not given),·,52,·,-1.9,·,
O=C1CCC(C(=O)Nc2ccccc2)N1 (stereo not given),-4,-12,-2,0.2,4%,
O=C(O)c1nn(-c2ccccc2)ccc1=O,-21,-4,5,1.2,-5%,
Cc1ccc(/C=C/C(=O)OCC(=O)NCCN2C(=O)CSC2=O)o1,·,7,8,-1.3,7%,
COc1ccc(NC2CCCN(C(=O)c3ccncc3)C2)cc1 (stereo not given),·,-6,·,-1.9,·,
COc1ccccc1N=Nc1ccc(N)c(C)c1,·,50,·,1.4,·,
CCOc1cc(/C=N/O)ccc1OCC(=O)Nc1cccc(C)c1,-5,?,4,0.8,76%,
C=CCOCC(O)CS(=O)(=O)Cc1ccc(Cl)cc1 (stereo not given),-27,-7,9,0.7,3%,
CC(NC(=O)CC12CC3CC(CC(C3)C1)C2)C(=O)O (stereo not given),-28,0,8,-0.6,3%,
CCOc1cccc(C(=O)Nc2ccccc2OC(F)F)c1,-29,-7,-5,1.6,5%,
CS(=O)(=O)N(CC(=O)N/N=C/c1ccc(OCC(=O)N2CCOCC2)cc1)c1ccccc1Cl,-21,-6,11,-1.3,-4%,
CCOC(=O)/C(C#N)=N/Nc1ccc(S(=O)(=O)N2CCc3ccccc32)cc1,-17,-1,26,2.0,1%,
CCC(=O)c1ccccc1OCCN1C(=O)NC(C)(C)C1=O,-27,-5,1,0.1,-1%,
O=C(CN1C(=O)CC(c2ccco2)Sc2ccccc21)NC1CCCCC1 (stereo not given),·,-1,17,1.3,·,

# Some of these compounds in order of SMILES length, lowest first:
SMILES,YopH inh,Mtb betalactam,Arbovirus inh,RecA splice inh,Mtb growth,others
COc1ccccc1N=Nc1ccc(N)c(C)c1,·,50,·,1.4,·,
COc1ccc(C(=O)NCCCNC(=O)c2ccccn2)cc1,·,-11,·,-0.9,·,
CC(NC(=O)CC12CC3CC(CC(C3)C1)C2)C(=O)O (stereo not given),-28,0,8,-0.6,3%,
CCOc1cc(/C=N/O)ccc1OCC(=O)Nc1cccc(C)c1,-5,?,4,0.8,76%,

# The list goes on.
SMILES,YopH inh,Mtb betalactam,Arbovirus inh,RecA splice inh,Mtb growth,others
Fc1ccccc1NC(=S)Nn1cnnc1,·,0,·,-0.6,·,
COc1ccc(O)c(-c2cc(-c3cccc(Br)c3)n[nH]2)c1,-10,89,-37,16,·,
CCOc1cccc(C(=O)Nc2ccc(N(CC)CC)cc2)c1,-28,-2,-16,-1.3,10%,
NS(=O)(=O)c1ccc(N/N=C2/CCCc3ccccc32)c([N+](=O)[O-])c1,·,5,-5,-0.2,9%,
CCN(c1c(C)n(C)n(-c2ccccc2)c1=O)S(C)(=O)=O,-18,-7,8,0.8,-1%,
CCC(Sc1nc2cc(OC)c(OC)cc2c(=O)n1Cc1ccc(OC)cc1)C(=O)NCCOC (stereo not given),·,-2,1,1.8,5%,
CCOC(=O)c1cccc(NC(=O)C2CCN(S(=O)(=O)c3cccs3)CC2)c1,-10,9,-3,·,·,
COc1ccc(-c2nnc(SC(C)C(=O)Nc3c(C)n(C)n(-c4ccccc4)c3=O)o2)cc1 (stereo not given),-110,-4,3,-1.7,-4%,
CCc1nn(-c2ccccc2)c(=S)c2ccccc12,·,-3,6,-0.8,5%,
CCCOc1ccc(/C=N/n2nnnc2N)cc1OC,·,2,·,-1.6,·,
O=C(c1ccc([N+](=O)[O-])cc1)N1CCSC1c1ccc(Cl)cc1 (stereo not given),-22,-4,-4,1.6,-4%,
CN(C)CCCN(C(=O)CCc1ccccc1)c1nc2ccc(F)cc2s1,-29,-8,-31,0.4,7%,
CC(C)c1ccc(NC(=O)Cn2nnc(C(=O)NCc3ccc4c(c3)OCO4)c2N)cc1,·,0,·,-1.4,·,
CCOC(=O)N1CCN(Cc2cccs2)CC1,-26,-14,1,0.1,-5%,
COCCSc1nnc(NC(=O)CS(=O)(=O)c2ccc(C)cc2)s1,·,-6,·,-3.0,·,
Cc1ccc(C)c(Nc2cc(C)nc(-c3ccccc3O)n2)c1,·,90,·,11,·,
CCOc1ccc(NC(=O)Cn2ncc3ccccc32)cc1,·,-4,·,-2.3,·,
COc1ccc(CC(=O)NNc2ncnc3c2cnn3Cc2ccccc2)cc1OC,·,-3,·,1.1,-6%,
Cc1cccc(CC(C)NC(=O)CCc2nnc(CCCCc3ccccc3)o2)n1 (stereo not given),·,-7,4,0.5,0%,
CC(C)(C)NC(=O)COc1ccc(CNn2nnnc2N)cc1,-39,-3,9,·,-2%,

# Random excerpt: 2 records from the list.
SMILES,YopH inh,Mtb betalactam,Arbovirus inh,RecA splice inh,Mtb growth,others
COc1ccccc1N=Nc1ccc(N)c(C)c1,·,50,·,1.4,·,
C=CCOCC(O)CS(=O)(=O)Cc1ccc(Cl)cc1 (stereo not given),-27,-7,9,0.7,3%,

# (continued)
SMILES,YopH inh,Mtb betalactam,Arbovirus inh,RecA splice inh,Mtb growth,others
Cc1cc(C)n(-c2n[nH]c(C)c2[N+](=O)[O-])n1,·,7,2,-2.0,-15%,
COc1ccccc1C(=O)NCCC(=O)Nc1nc2ccccc2[nH]1,·,-21,·,6.3,·,
CC(C(=O)Nc1nccs1)N1C(=O)C2CC=CCC2C1=O (stereo not given),-26,-2,2,1.5,-2%,
O=C(/C=C/c1cccs1)NC1CC1,·,-6,3,-3.5,-13%,
NNC(=O)c1csc(-c2cccc(C(F)(F)F)c2)n1,·,82,-9,-0.9,6%,
C=CCN(CC(O)c1cccc([N+](=O)[O-])c1)C(C)CCc1ccccc1 (stereo not given),·,0,·,3.4,8%,
C=CCON/C(CCC)=C1\C(=O)CC(C)(C)CC1=NC,·,-5,·,-0.4,0%,
Cc1cc(C)n(CCNS(=O)(=O)c2ccc(Cl)cc2)n1,·,-8,·,-0.8,·,
COc1ccc(S(=O)(=O)/N=C2/NC(=O)/C(=C\c3ccco3)S2)cc1,-44,2,-8,0.7,-3%,
CCOC(=O)C(=O)/C(=C\N(C)C)c1onc(-c2ccccc2)c1C(=O)OC,-19,1,-7,-5.3,-3%,
CSc1nc2c(c(=O)n1C)SC(C)C2 (stereo not given),-2,5,7,-1.6,-2%,Arbovirus inh repeat=4
O=C(CSc1nc(=O)n(CCCN2CCOCC2)c2c1CCCC2)Nc1cccc(Cl)c1,·,-4,·,-2.6,·,
CC1(C)C(=O)OC(C(=O)c2ccc(Cl)cc2)C(C)(C)C1=O (stereo not given),-8,1,7,-0.8,3%,
Nc1ccccc1C(=O)NCc1ccc(F)cc1,·,-4,-2,-1.6,5%,
O=C(OCc1nnc(-c2ccccc2)o1)c1cccnc1Cl,·,-1,-2,-1.9,-8%,
CCN(Cc1ccccc1)C(=O)C1CCC(CNc2c(N3CCOCC3)c(=O)c2=O)CC1 (stereo not given),-28,-1,9,-3.8,7%,
COC(=O)c1cn(NC(=O)Cc2ccc(Cl)c(Cl)c2)c(=O)c2ccccc12,-5,?,-4,-1.4,1%,
O=C(NNC1=NC2(CCCC2)Cc2ccccc21)c1ccncc1,·,2,4,1.0,6%,
Cc1cccc(NC(=O)c2cc([N+](=O)[O-])ccc2N2CCN(C)CC2)c1,·,5,5,-4.3,4%,
O=C(Cc1cccs1)Nc1nnc(SCc2cccc3ccccc23)s1,-23,4,1,0.1,-2%,
C/C(=N\NC(=O)CCc1ccc(S(=O)(=O)N2CCOCC2)cc1)c1ccc(Br)cc1,·,-5,1,0.4,3%,
CCCCc1c(O)nc2sc3cc(OC)ccc3n2c1=O,-18,2,6,-0.3,-1%,
C=CCN1C(=O)c2ccc(C(=O)NCCOc3ccccc3F)cc2C1=O,·,-5,·,0.9,·,
Cc1ccc(-c2csc(-c3c[nH]c4ccccc34)n2)c(C)c1,-25,40,-42,6.8,30%,
COc1cccc(C(=O)Oc2ccc3ccc(=O)oc3c2)c1,·,0,·,-60,·,
Cc1nn(C)cc1C(N)=O,-22,0,5,3.1,6%,
CC1CCc2sc(C(=O)N(C)CC(=O)Nc3ccc(N4CCOCC4)cc3)cc2C1 (stereo not given),·,-8,·,-0.4,·,
COc1cccc(C(C(=O)NC2CCCC2)N(C(=O)c2ccco2)c2ccc(C(C)=O)cc2)c1OC (stereo not given),·,5,·,3.4,·,
CC1Cc2cc(S(=O)(=O)CCC(=O)NCc3ccco3)ccc2N1C(=O)C1CC1 (stereo not given),·,6,·,0.2,·,
COc1cc2c(cc1NC(=O)C(C)OC(=O)c1ccc(S(=O)(=O)Nc3ccccc3Cl)cc1)oc1ccccc12 (stereo not given),·,-1,-4,-0.4,4%,
Cc1cccc(Sc2nc(-c3ccccc3)ccc2C#N)c1,-27,4,-6,-1.2,-3%,
O=C1OC(/C=C/c2ccccc2)=NC/1=C\c1cccnc1,·,-4,5,-1.8,2%,
Cc1cc(C)n(-c2nc3ccccc3c(=O)n2OCC(=O)OCc2ccccc2)n1,-35,·,-16,4.8,·,
Cc1ccc(NC(=O)CSCc2cc(=O)n3ccsc3n2)c(C)c1,·,-7,·,-0.2,·,
CC(=O)Nc1ccc(NC(=O)C2CCN(C(=O)c3ccc([N+](=O)[O-])cc3)CC2)cc1,·,-2,2,0.3,1%,
CCCNC(=O)COC(=O)c1ccc(OCC(=O)Nc2ccccc2OC)c(OC)c1,-11,10,5,-4.0,-12%,
c1ccc(-c2csc3ncnc(NCCN4CCOCC4)c23)cc1,-42,14,17,-0.5,-10%,
COc1ccc(S(=O)(=O)N(C)CC(=O)NCCC2=CCCCC2)cc1,-17,-5,1,-2.8,-9%,
CC(C)NS(=O)(=O)c1ccc(Oc2ncc(C(F)(F)F)cc2Cl)cc1,-30,-16,-3,1.2,-6%,
Nc1nc2c(Cl)cc(Cl)cc2s1,·,3,-2,1.0,0%,
Cc1cccc(NC(=O)c2cccc(C(=O)Nc3cccc(C)n3)c2)n1,·,-6,·,2.2,·,
Cc1ccc(-c2nnnn2C2C/C(=N\NC(N)=S)C3OCC2O3)cc1 (stereo not given),·,-11,19,-0.9,-7%,
COCCn1cnc2c1c(=O)n(Cc1ccccc1C#N)c(=O)n2Cc1ccccc1,·,3,·,-3.0,·,
O=C(Nc1ccc(Nc2ccccc2)cc1)c1cc([N+](=O)[O-])ccc1Cl,·,3,·,4.0,·,
O=c1[nH]c2ccccc2c(O)c1-c1ccccc1,·,-5,·,·,12%,
COc1cccc(OCCOc2ccc(/C=C3\C(=N)N4N=C(S(C)(=O)=O)SC4=NC3=O)cc2OC)c1,·,5,·,5.2,·,
O=C1CCC(C(=O)N2CCCC(C(=O)c3ccc4ccccc4c3)C2)=NN1 (stereo not given),·,7,·,0.8,·,
O=C(/C=C/Nc1ccc(Cc2ccc(N/C=C/C(=O)C(F)(F)F)cc2)cc1)C(F)(F)F,-9,3,-11,-4.0,32%,
CCOC(=O)N1CCN(C(=O)CN(c2cc(C(F)(F)F)ccc2Cl)S(C)(=O)=O)CC1,-32,2,8,0.2,-7%,Arbovirus inh repeat=-1
CSc1c(-c2ccccn2)c(N)nn1C(=O)C1CC1,·,72,·,9.0,0%,
C=CCN1C(=O)C(CC(=O)O)SC1=Nc1ccc(C(=O)O)cc1 (stereo not given),·,-3,3,-0.7,-7%,
O=C1Nc2ccccc2C(=O)N2[C@H](c3cccc(Br)c3)[C@@H]3C(=O)N(Cc4ccccc4)C(=O)[C@@H]3[C@H]12,·,16,·,-5.0,·,
Cc1ccc(C)c2[nH]c(=O)c(CN(Cc3ccco3)C(=O)Nc3ccccc3)cc12,-28,-10,-24,1.8,8%,
CCc1ccc(NC(=O)Nn2cnnc2)cc1,·,-5,·,3.5,·,
CC1CN(C(=O)CCC(=O)NCCCN2C(C)CCCC2C)c2ccccc2O1 (stereo not given),·,-4,·,2.1,·,
O=C(NCCC1=CCCCC1)C1COc2ccccc2O1 (stereo not given),-37,-3,10,·,15%,

# Bioassay records as filed in PubChem BioAssay.
